# Compound activity: PubChem BioAssay, ICCB-Longwood Screening Facility, Harvard Medical School
# Vaccinia pol inh – vaccinia E9 polymerase processive synthesis inhibitors, primary screen, biochemical, absorbance. Vaccinia virus DNA polymerase (E9) processive complex. in vitro processive DNA synthesis, absorbance read-out; hits give low values; some inactives read as strong as hits. normalized absorbance, % (test concentration not listed). 0.94% of 46,000 active;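 active means replicate mean up to 90% and picked by the depositor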;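 further: 100% = median of the test wells of a plate; 100 nL library stock went into each well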
# The depositor's hits bear a star. Only part of the results is shown. The share of hits here may be higher or lower than overall.
mol	Vaccinia pol inh
CN(C)CCOC(=O)C12CC3CC(CC(C3)C1)C2	102
Oc1c(Cl)cc(Cl)cc1C1Nc2cc(C(F)(F)F)ccc2-n2cccc21 (stereo not drawn)	88
Cc1cc(C(F)(F)F)nn1CC(=O)Nc1ccc(CC#N)cc1	100
O=C(c1cccc(I)c1)N1CCN(c2ccccc2O)CC1	102
Cc1cccc(N2CCN(C(=O)CN3C(=O)/C(=C\c4cccc(F)c4)Oc4ccccc43)CC2)c1C	105
O=C(CC(C(=O)c1ccccc1)n1cccn1)c1ccccc1 (stereo not drawn)	98
Cc1cccc(-n2c(C)nc3cc(C(=O)NCCN4CCOCC4)ccc32)c1	105
Cc1ccc(N2NC3(CC(C)CC(C)(C)C3)NC2=S)cc1C (stereo not drawn)	100
CC(C)(C)c1cc(C(c2ccc(F)cc2)N2CCN(CCO)CC2)cc(C(C)(C)C)c1O (stereo not drawn)	101
S=C(SCc1cn2ccccc2n1)N1CCOCC1	101
O=C1OC(c2ccccc2)OC(=O)C1=Cc1cccs1 (stereo not drawn)	100
CS(=O)(=O)NCC(c1cccnc1)N1CCN(Cc2ccccc2)CC1 (stereo not drawn)	103
CC(=O)Oc1c(Sc2ccccc2)c(C)nn1C(C)(C)C	83*
Cc1ccc(S(=O)(=O)NCc2ccc(C(=O)NC3CCC(C)CC3)cc2)cc1 (stereo not drawn)	99
COc1ccc(C(=O)NCCC2=CCCCC2)cc1	97
CCOc1ccc(S(=O)(=O)n2ccc(C)n2)cc1	100
COC(=O)CSc1cc(Cl)nc2ccc(C)cc12	82
Cc1ccc(C2N(c3ccccc3)CCN2c2ccccc2)s1	100
COC(=O)c1c(N)n(CCc2ccccc2)c2nc3ccccc3nc12	100
Oc1ccc2nc(N3CCOCC3)sc2c1	104
Cn1cnnc1SCC(=O)NC1CC1	99
O=C(Nc1cccs1)N1CCN(C(=O)C2CCCO2)CC1 (stereo not drawn)	94
NC(=O)CSc1nc2ccccc2[nH]1	101
O=C1Nc2ccccc2N/C1=C\c1ccc2ccccc2n1	92
COc1ccc2oc(C(=O)CCC(=O)O)c(N)c2c1	87
Cc1ccccc1S(=O)(=O)Cc1ccc(C(=O)n2ccnc2)o1	99
Cc1ccc2c(c1)-c1c(ssc1=Nc1ccc(S(N)(=O)=O)cc1)C(C)(C)N2	100
COc1cc2c(cc1OC)C1(CCCC1)CNC2C (stereo not drawn)	100
CCc1nc(NCc2ccccc2)c(C#N)c2c1COC(C)(C)C2	90
O=C1NCCN1CCNC(=S)Nc1cc(C(F)(F)F)cc(C(F)(F)F)c1	99
COc1ccc(NC(=O)c2cc3sccc3n2Cc2ccc(F)cc2)cc1Cl	104
O=c1c2cccnc2n(Cc2ccc(Cl)cc2)c(=O)n1C1CCCCC1	98
O=C(CC1(O)C(=O)N(CCc2ccccc2)c2ccccc21)c1cccnc1 (stereo not drawn)	98
COc1ccc(-c2oc3ncn(CC(C)C)c(=N)c3c2-c2ccc(OC)cc2)cc1	99
COc1cccc(C(=O)OCC(=O)c2ccc(-c3ccccc3)cc2)c1	96
CCC1(C)Cc2c(C#N)c(N)n(-c3ccccc3)c(=O)c2CO1 (stereo not drawn)	102

# Among those listed so far, three have a furan ring, fused or not:
mol	Vaccinia pol inh
COc1ccc2oc(C(=O)CCC(=O)O)c(N)c2c1	87
Cc1ccccc1S(=O)(=O)Cc1ccc(C(=O)n2ccnc2)o1	99
COc1ccc(-c2oc3ncn(CC(C)C)c(=N)c3c2-c2ccc(OC)cc2)cc1	99

# (list continues)
mol	Vaccinia pol inh
CCN(CC)CCN1COc2c(cc(Cl)c3cccnc23)C1	73
O=c1cc(-c2ccccc2)c2c(O)cc(O)cc2o1	99
N#CC1=C(N)OC2=C(CCc3ccccc32)C1c1ccccc1Cl (stereo not drawn)	100
C=CCN(c1ccccc1)C(C(=O)Nc1ccc2c(c1)OCCO2)c1ccccc1 (stereo not drawn)	107
COc1cc(C)c(Cl)c(C)c1S(=O)(=O)N1CCN(Cc2ccccc2)CC1	91
O=C(Nc1ccc(O)c(-c2nc3ccccc3s2)c1)C1CCCCC1	100
Fc1ccc(Cn2cnc3ccccc32)cc1	100
CC1CCCC(C)N1C(=O)c1ccccc1NS(=O)(=O)c1ccc(F)cc1 (stereo not drawn)	98
Cc1cc(NC(=O)CSc2nccc(=O)[nH]2)no1	100
CN1C(=O)NC(=O)/C(=C\c2ccc(O)cc2)C1=O	100
Cc1cc(NC(=O)C2CCC2)n(-c2nc3ccccc3s2)n1	91
O=S(=O)(Nc1ccccc1N1CCCCC1)c1cccc2nonc12	96

# Exported with each value named: entries from further up
smiles: Cc1cccc(-n2c(C)nc3cc(C(=O)NCCN4CCOCC4)ccc32)c1
  Vaccinia pol inh: 105

smiles: CC(C)(C)c1cc(C(c2ccc(F)cc2)N2CCN(CCO)CC2)cc(C(C)(C)C)c1O (stereo not drawn)
  Vaccinia pol inh: 101

# Carrying on:
mol	Vaccinia pol inh
CCC(C)N1CCN(CC2CC=CCC2)CC1 (stereo not drawn)	103
CCCc1cc(=S)sc(N)n1	99
CCN(CC)c1nnc(Cl)c2ccccc12	98
Cn1nc2c3ccccc3n(Cc3ccccc3)c2nc1=S	90
COc1ccccc1N1CCN(CC(O)COc2c(F)cc(Br)cc2F)CC1 (stereo not drawn)	102
O=C(CSc1c2c(nc3ccccc13)CCCC2)NCCC1=CCCCC1	96
O=c1ccc2cc(O[C@H]3O[C@H](CO)[C@@H](O)[C@H](O)[C@H]3O)c(O)cc2o1	100
O=C(CSCc1ccco1)c1ccccc1F	99
COc1ccccc1N1CCN(C2CCN(Cc3cc(OC)c(OC)c(OC)c3)CC2)CC1	100
O=C(CSc1nc2ccccc2o1)OCC(=O)c1ccccc1	98
CSc1ccccc1C(=O)NCCOc1ccccc1C	102
N#CCCN1CCn2c3ccc(C4CCCCC4)cc3c3cccc1c32	100
COc1ccc(-c2noc(CNC(=O)COc3ccccc3)n2)cc1	81
COc1ccc(-n2cnc3cc(C(=O)NC4CCCCC4C)ccc32)cc1 (stereo not drawn)	104
Cc1ccc(C(=O)NC(CC(=O)O)C(F)(F)F)cc1 (stereo not drawn)	103
CN(C)c1cccc(NC(=O)c2ccco2)c1	100
O=C1C=CC(=O)N1c1ccccc1C(F)(F)F	101
CCOC(=O)C(C)n1nc(C)c2sc3ccccc3c2c1=O (stereo not drawn)	92
CCOC(=O)C1=C(C)NC(=S)NC1c1cccc(O)c1 (stereo not drawn)	100
Cc1nc(-c2c[nH]c3ccccc23)c(C)s1	101
O=C(CCN1N=C(c2ccccc2)CCC1=O)Nc1cccc(C(F)(F)F)c1	76
O=C(CSc1nc2sc3c(c2c(=O)[nH]1)CCC3)Nc1ccccc1C(F)(F)F	75
CCOC(=O)c1cc(-c2ccccc2)n(CCCC(=O)NCc2ccccc2)c1C	112
CCn1c2c(c(=O)[nH]c1=O)C(c1ccsc1)C1=C(N2)c2ccccc2C1=O (stereo not drawn)	86
Clc1ccc(Sc2ccc(-c3ccccn3)s2)cc1	84
N#Cc1ccc(NC(=S)NCCN2CCOCC2)cc1	96
CCC(CO)Nc1nnc(-c2ccccc2)c2ccccc12 (stereo not drawn)	103
CCn1c(C(=O)O)c(CNC2CCC(C)CC2)c2ccccc21 (stereo not drawn)	102
CC(C)Cn1c(C(O)c2ccccc2)nc2ccccc21 (stereo not drawn)	96
O=C(O)c1ccccc1SCC(=O)N1CCCC1	90
O=C(Nc1ccccc1)C1CC2CCCC(C1)C2=O (stereo not drawn)	91
CC(C)CCn1c(SCc2ccc(F)cc2)nc2nccnc2c1=O	91
Cc1ccc2[nH]c(=O)c(C=NC(CO)(CO)CO)c(O)c2c1	98
CCOC(=O)C1CCCC1=O (stereo not drawn)	99
CC(C)(C)CC[n+]1ccc(/C=N/O)cc1	100
C=CCNC(=O)C1CCN(c2ncccn2)CC1	77
COc1ccc(NC(=O)c2ccc(Cl)cc2)cc1	112
CC1(C)CC(=O)CC(=Nc2ccc3[nH]c(=O)[nH]c3c2)C1	99
C=CCC1(NCCc2ccccc2)CCCCC1	92
CCc1ccccc1NC(=O)CCC(=O)N1CCSc2ccccc21	89
CCOc1ccc(OCC)c(C(=O)C2CCCCC2)c1	100
O=C(NCCCN1CCCCC1)c1cc(Sc2ccc(F)cc2)nc2ccccc12	101
COC(=O)C(C)C1Sc2ccccc2NC1=O (stereo not drawn)	96
CN1CCc2c(sc(NC(=O)c3cc(Cl)sc3Cl)c2C(N)=O)C1	84
CC1(C)C/C(=N\O)c2c(nc(C(F)(F)F)c3[nH]c4ccccc4c23)C1	100
O=C(Cn1cccc1)Nc1ccccc1Cl	101
CC(=O)NC(=O)c1cc2ccccc2oc1=Nc1ccc(C(F)(F)F)cc1	100
CCCCn1c(Cc2ccccc2)nc2ccccc21	100
Nc1ccccc1C(=O)NCCN1CCNC1=O	108
COC(=O)C1=C(Nc2ccccc2NC(=O)COCC(=O)O)CSC1	101
CC1CN(C(=S)SCC(=O)c2ccccc2)CC(C)O1 (stereo not drawn)	100
Brc1c(-c2ccccc2)nc2n1CCC2	94
O=C1CSc2ccc(C(F)(F)F)cc2N1	100
COCn1c(COc2ccc3ccccc3c2)nc2ccccc21	100
N#CC(Nc1cc(C(F)(F)F)cc(C(F)(F)F)c1)c1ccccc1 (stereo not drawn)	98
NS(=O)(=O)c1ccc(NC(=O)CN2C(=O)c3ccccc3C2=O)cc1	100
O=C(c1ccc2c(c1)OCCCO2)N1CCOCC1	103
Cc1nc2ccccc2cc1C(N)=O	100
COc1ccc(/C=C/C#N)cc1	101
CC(=O)NCC(c1ccccc1)c1ccccc1	100

# Continuation:
mol	Vaccinia pol inh
C[C@@H]1[C@@H](c2ccc(F)c(Br)c2)N2C=Cc3ccccc3[C@@H]2C1(C#N)C#N	100
COC(=O)C1=C(N)Oc2c(oc(CO)cc2=O)C1c1ccccc1 (stereo not drawn)	92
O=C(CC1COc2ccccc2O1)Oc1ccccc1 (stereo not drawn)	89
CCCN(CCC)CCCn1cnc2c([nH]c3ccc(F)cc32)c1=O	94
COc1ccccc1OCC(=O)NC1CCCCC1	102
CCOC(=O)CSc1nnc(NC(=O)CC)s1	99
Cc1ccc(-c2csc3ncnc(NCCC(=O)O)c23)cc1	100
O=C(NC1CCCCC1)N1c2ccccc2CCc2ccccc21	100
CCOC(=O)c1c(C)[nH]c(C(=O)O)c1C	103
O=C(CC1CC2CCC1C2)NCc1cccs1 (stereo not drawn)	100
Cc1nnc(Sc2nc3ccc(Cl)cc3s2)n1-c1ccc2c(c1)OCCO2	99
COc1ccc(NC(=O)COC(=O)Cc2cccc(C(F)(F)F)c2)cc1	102

# Another view of part of the listing above.
O=C(CC1CC2CCC1C2)NCc1cccs1 (stereo not drawn)
  Vaccinia pol inh = 100
Cc1nnc(Sc2nc3ccc(Cl)cc3s2)n1-c1ccc2c(c1)OCCO2
  Vaccinia pol inh = 99
C[C@@H]1[C@@H](c2ccc(F)c(Br)c2)N2C=Cc3ccccc3[C@@H]2C1(C#N)C#N
  Vaccinia pol inh = 100
CCOC(=O)CSc1nnc(NC(=O)CC)s1
  Vaccinia pol inh = 99

# Additional entries:
mol	Vaccinia pol inh
O=C(c1ccn(C(=O)c2ccc(Cl)cc2Cl)n1)N1CCCCC1	100
CCN(CC)C(=O)C1C(=O)NC2(C)CC1c1ccccc1O2 (stereo not drawn)	123
Cc1ccc(NC(=O)COC(=O)c2cccc(C(F)(F)F)c2)cc1C	102
OC(c1ccc(-n2ccnc2)cc1)c1ccc(-n2ccnc2)cc1	88
O=C(Nc1ccccc1)OCC(F)(F)F	103
COC(=O)c1nn(-c2ccccc2)c2oc(=O)cc(C)c12	101
CCC(C(=O)N1CCCC1)n1c(C(=O)OC)cc2sccc21 (stereo not drawn)	104
NC(N)=Nc1nc(-c2ccccc2)c2ccccc2n1	51*
O=C1NC(c2ccc(Cl)cc2)=COc2ccccc21	102
Cc1sc2nc3c4ccccc4c(NCCO)nn3c(=O)c2c1C	101
Cc1ccc(C(=O)NCC#N)cc1	102
Cc1ccc(NC(=O)CN2C(=O)CSC(C)C2=O)cc1 (stereo not drawn)	116
Cc1cc(Cc2c(O)nc(SCc3ccccc3)[nH]c2=O)ccc1OC(C)C	100
O=C(CSc1nc2ccccc2[nH]1)c1ccccc1	114
CC(=O)Nc1c(-c2ccc(F)cc2)nc2ccccn12	92
COc1ccc(C(=O)Nc2ccncc2)c(OC)c1	100
Cc1ccc(Cl)cc1N1CCN(C(=O)CN2C(=O)COc3ccc(C(C)(C)C)cc32)CC1	112
O=C(CCN1C(=O)c2ccccc2Sc2ncccc21)NCc1ccccc1	95
O=C(CSc1ccc(-c2cccs2)nn1)NCCc1ccccc1	106
CSc1nc2n(n1)C(C(C)C)C(C(=O)Nc1ccccc1)=C(C)N2 (stereo not drawn)	104
CCC1Nc2ccccc2-c2nnc(SC)nc2O1 (stereo not drawn)	100
CC(=O)N(C)c1nc(N)n(-c2ccccc2)n1	101
Cc1[nH]c2ccccc2c1CCNCC(C)(C)C	93
COc1ccc(NCc2nc3ccccc3n2CCOc2ccccc2)cc1	108
Cc1cc(C(=O)CC#N)c(C)n1-c1cccc(C(F)(F)F)c1	105
O=c1cc(-c2ccccc2)nc(Cc2c(Cl)cccc2Cl)[nH]1	98
N#Cc1cc(-c2nc3ccccc3[nH]2)c(N)n2c1nc1ccccc12	78
S=c1nccc(-c2csc(COc3ccccc3Cl)n2)[nH]1	100
CCN1CCCc2cc(CN(C(=S)Nc3ccc(OC)cc3)C3CCCC3)ccc21	94
CCOC(=O)N(c1ccccc1)S(=O)(=O)c1ccc(Cl)cc1	100
CC(=O)Nc1c(=O)[nH]n2c(C)cc(C)nc12	90
